Screening results as filed in PubChem.
UUG fidelity: modulators of start codon recognition fidelity in yeast; hit rate 0.13% among 350,000; S. cerevisiae UUG-firefly luciferase reporter, luminescence/redox ratio; activity score, % at 18.7 µM; AID 602363;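 active = replicate mean at a twofold rise or more, about +100% in these data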;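 also: firefly luciferase made from a UUG start codon reports start codon fidelity; reporter light over untreated wells divided by growth signal over untreated wells; some hits fall short of that in this replicate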
* marks the source's active call; other numbers are inactive results. Not all compounds are listed. The share of hits here may be higher or lower than overall.

What do the screens show for `COc1cccc(C(=O)Nc2ccc3c(c2)C(=O)N(C)C[C@@H](OC)[C@@H](C)CN(C)[C@H](C)CO3)c1`?
UUG fidelity: 5

How did CCCN1[C@@H]2Cn3c(ccc(-c4ccncc4)c3=O)[C@H]1[C@@H](C(=O)NCCc1cn(C)cn1)[C@@H]2CO do in these assays?
UUG fidelity: 2

Results for O=S(=O)(c1ccccc1)N1CCCCN2[C@H](CO)[C@H](c3ccc(-c4ccccc4F)cc3)[C@H]2C1 ?
UUG fidelity: 0

Results for Cc1cccc(S(=O)(=O)N(C)C[C@H]2OCc3ccccc3-c3c(n(C)c4ccccc34)C(=O)N([C@@H](C)CO)C[C@H]2C)c1 ?
UUG fidelity: 2

What do the screens show for `C[C@H]1CN([C@@H](C)CO)C(=O)c2cccc(NS(=O)(=O)c3cn(C)cn3)c2O[C@@H]1CN(C)C(=O)Nc1ccc2c(c1)OCO2`?
UUG fidelity: 1

What do the screens show for `O=C(c1cccc(F)c1)N1C[C@@H]2[C@H](c3ccccc31)[C@H](CO)N2C(=O)Cc1ccccc1`?
UUG fidelity: 14

How did COc1ccc(CN(C)C[C@H]2Oc3ccc(NC(=O)Cn4cnnn4)cc3CC(=O)N([C@H](C)CO)C[C@@H]2C)cc1 do in these assays?
UUG fidelity: -5

How did O=C(NC1CCCCC1)[C@@H]1[C@@H](CO)[C@@H]2Cn3c(cccc3=O)[C@@H]2N1CC1CCCCC1 do in these assays?
UUG fidelity: 3

Results for C[C@H](CO)N1C[C@H](C)[C@@H](CN(C)C(=O)Nc2ccc(-c3cccs3)cc2)OCc2cnnn2CCCC1=O ?
UUG fidelity: 6

How did COc1cccc(C(=O)Nc2ccc3c(c2)C(=O)N(C)C[C@@H](OC)[C@@H](C)CN(C(=O)C2CCCC2)[C@H](C)CO3)c1 do in these assays?
UUG fidelity: 25

What do the screens show for `CCCC#Cc1ccc([C@H]2[C@@H](CO)N3CCCCN(C(=O)c4ccc5c(c4)OCO5)C[C@@H]23)cc1`?
UUG fidelity: 3

What do the screens show for `CN(C)CCCNC(=O)C[C@@H]1CC[C@@H]2[C@@H](COc3ccc(NC(=O)C4CCC4)cc3C(=O)N2C)O1`?
UUG fidelity: -9

How did COc1ccc(C(=O)Nc2ccc3c(c2)OC[C@@H](C)N(C(C)=O)C[C@@H](C)[C@@H](OC)CN(C)C3=O)cc1 do in these assays?
UUG fidelity: -12

What do the screens show for `CN(C)C(=O)c1cccc(-c2ccc([C@@H]3[C@H]4CN(C(=O)C5CCC5)CCCCN4[C@H]3CO)cc2)c1`?
UUG fidelity: -10

What do the screens show for `Cc1cccc(S(=O)(=O)N2C[C@H]3[C@@H](c4ccccc42)[C@H](CO)N3C(=O)C2CC2)c1`?
UUG fidelity: -9

How did O=C(Cc1ccccc1)N1CC[C@H]2[C@H](CO)Nc3ccc(-c4ccccc4F)cc3[C@H]21 do in these assays?
UUG fidelity: -7

How did COCC(=O)Nc1ccc2c(c1)OC[C@@H](C)N(C(=O)c1ccccc1)C[C@@H](C)[C@H](OC)CN(C)C2=O do in these assays?
UUG fidelity: 1

Results for C[C@H](CO)N1C[C@H](C)[C@@H](CN(C)S(=O)(=O)c2ccc(Cl)cc2)Oc2ccc(NC(=O)Nc3ccccc3)cc2CC1=O ?
UUG fidelity: 16

How did C[C@@H]1CN([C@@H](C)CO)C(=O)c2cccc(NS(=O)(=O)c3cccs3)c2O[C@@H]1CN(C)S(=O)(=O)c1ccccc1 do in these assays?
UUG fidelity: -4

How did CN(C)C(=O)c1cccc(-c2ccc([C@@H]3[C@@H](CO)N4CCCCN(CCC(F)(F)F)C[C@H]34)cc2)c1 do in these assays?
UUG fidelity: 23

Results for C[C@H]1CN([C@@H](C)CO)C(=O)Cc2cc(NC(=O)Nc3ccc4c(c3)OCO4)ccc2O[C@@H]1CN(C)C ?
UUG fidelity: 1

Results for C[C@H](O)C#Cc1ccc([C@@H]2[C@@H](CO)N3CCCCN(C(=O)Nc4ccccc4)C[C@H]23)cc1 ?
UUG fidelity: 9

Results for C[C@H]1CN([C@@H](C)CO)C(=O)c2cccc(NC(=O)Nc3ccc(C(F)(F)F)cc3)c2O[C@H]1CN(C)CC1CCCCC1 ?
UUG fidelity: 1

What do the screens show for `C[C@@H]1CN([C@H](C)CO)C(=O)c2cc(NC(=O)Cc3cn(C)c4ccccc34)ccc2O[C@@H]1CN(C)Cc1ccc(C(=O)O)cc1`?
UUG fidelity: -5

What do the screens show for `N#Cc1ccc(-c2ccc3c(c2)[C@H]2[C@H](CCN2C(=O)c2ccc(F)cc2)[C@@H](CO)N3)cc1`?
UUG fidelity: 14

How did Cc1noc(C)c1S(=O)(=O)Nc1ccc2c(c1)C(=O)N([C@@H](C)CO)C[C@H](C)[C@@H](CN(C)Cc1ccc3c(c1)OCO3)O2 do in these assays?
UUG fidelity: -4

What do the screens show for `COc1ccc(NC(=O)Nc2cccc3c2O[C@H](CN(C)C)[C@@H](C)CN([C@H](C)CO)C3=O)cc1`?
UUG fidelity: -21

What do the screens show for `C[C@@H](NC(=O)C[C@@H]1C[C@H]2c3cc(NC(=O)C4CCC4)ccc3O[C@H]2[C@H](CO)O1)c1ccccc1`?
UUG fidelity: 0

What do the screens show for `COc1cccc(C(=O)Nc2ccc3c(c2)C(=O)N(C)C[C@H](OC)[C@@H](C)CN(C(=O)C2CCCC2)[C@@H](C)CO3)c1`?
UUG fidelity: -3

Results for O=C(Nc1ccccc1)N1CCCCN2[C@H](CO)[C@@H](c3ccc(C#Cc4cccnc4)cc3)[C@@H]2C1 ?
UUG fidelity: -1

Among those listed so far, these have a halogen.
Results for O=S(=O)(c1ccccc1)N1CCCCN2[C@H](CO)[C@H](c3ccc(-c4ccccc4F)cc3)[C@H]2C1 ?
UUG fidelity: 0

What do the screens show for `O=C(c1cccc(F)c1)N1C[C@@H]2[C@H](c3ccccc31)[C@H](CO)N2C(=O)Cc1ccccc1`?
UUG fidelity: 14

How did O=C(Cc1ccccc1)N1CC[C@H]2[C@H](CO)Nc3ccc(-c4ccccc4F)cc3[C@H]21 do in these assays?
UUG fidelity: -7

Results for C[C@H](CO)N1C[C@H](C)[C@@H](CN(C)S(=O)(=O)c2ccc(Cl)cc2)Oc2ccc(NC(=O)Nc3ccccc3)cc2CC1=O ?
UUG fidelity: 16

How did CN(C)C(=O)c1cccc(-c2ccc([C@@H]3[C@@H](CO)N4CCCCN(CCC(F)(F)F)C[C@H]34)cc2)c1 do in these assays?
UUG fidelity: 23

Results for C[C@H]1CN([C@@H](C)CO)C(=O)c2cccc(NC(=O)Nc3ccc(C(F)(F)F)cc3)c2O[C@H]1CN(C)CC1CCCCC1 ?
UUG fidelity: 1

What do the screens show for `N#Cc1ccc(-c2ccc3c(c2)[C@H]2[C@H](CCN2C(=O)c2ccc(F)cc2)[C@@H](CO)N3)cc1`?
UUG fidelity: 14

Continued:
What do the screens show for `CO[C@@H]1CN(C)C(=O)c2cc(NC(=O)NC3CCCCC3)ccc2OC[C@@H](C)NC[C@H]1C`?
UUG fidelity: 16

How did C[C@H]1CN([C@@H](C)CO)C(=O)Cc2cc(NC(=O)CCC(F)(F)F)ccc2O[C@@H]1CN(C)CC1CCCCC1 do in these assays?
UUG fidelity: -12

How did Cc1ccccc1S(=O)(=O)N1CCCCN2[C@H](CO)[C@H](c3ccc(-c4cncnc4)cc3)[C@@H]2C1 do in these assays?
UUG fidelity: 15

Results for C[C@@H]1CN([C@H](C)CO)C(=O)Cc2cc(NC(=O)Cc3ccccc3)ccc2O[C@H]1CN(C)Cc1ccncc1 ?
UUG fidelity: 27

How did CC(C)NC(=O)Nc1cccc2c1O[C@@H](CN(C)Cc1ccc(C(F)(F)F)cc1)[C@H](C)CN([C@H](C)CO)C2=O do in these assays?
UUG fidelity: 0

How did CO[C@@H]1CN(C)C(=O)c2ccc(NC(=O)C3CCCC3)cc2OC[C@@H](C)N(C(=O)Nc2ccc(C(F)(F)F)cc2)C[C@H]1C do in these assays?
UUG fidelity: 11

Results for CN(C)C(=O)c1cccc(-c2ccc3c(c2)[C@H]2[C@H](CCN2C(=O)Cc2ccccn2)[C@@H](CO)N3C)c1 ?
UUG fidelity: -3

What do the screens show for `CCCNC(=O)Nc1ccc2c(c1)OC[C@H](C)N(C(=O)C1CCCCC1)C[C@H](C)[C@H](OC)CN(C)C2=O`?
UUG fidelity: 6

How did Cc1cc(C(=O)Nc2cccc3c2O[C@H](CN(C)C(=O)Nc2ccc(F)cc2)[C@H](C)CN([C@@H](C)CO)C3=O)n(C)n1 do in these assays?
UUG fidelity: -6

What do the screens show for `C[C@H](CO)N1C[C@H](C)[C@H](CN(C)C(=O)Nc2ccc3c(c2)OCO3)Oc2ccc(NC(=O)CCN3CCOCC3)cc2C1=O`?
UUG fidelity: -10

What do the screens show for `CO[C@@H]1CN(C)C(=O)c2cc(NS(C)(=O)=O)ccc2OC[C@H](C)N(C(=O)C2CCCCC2)C[C@@H]1C`?
UUG fidelity: 0

How did C[C@@H]1CN([C@H](C)CO)C(=O)c2cccc(NC(=O)C3CCOCC3)c2O[C@H]1CN(C)Cc1ccc(-c2ccccc2)cc1 do in these assays?
UUG fidelity: 19

Results for Cn1cnc(CCNC(=O)C[C@H]2CC[C@@H]3[C@H](COC[C@@H](O)CN3C(=O)Nc3ccc(Cl)cc3)O2)c1 ?
UUG fidelity: -1

How did CCC(=O)N1C[C@H](C)[C@@H](OC)CN(C)C(=O)c2cc(NC(=O)NC(C)C)ccc2OC[C@@H]1C do in these assays?
UUG fidelity: -8

Results for C[C@@H](O)C#Cc1ccc([C@H]2[C@@H](CO)N3CCCCN(CC4CCOCC4)C[C@H]23)cc1 ?
UUG fidelity: 27

How did C[C@@H]1CN([C@H](C)CO)C(=O)Cc2cc(NC(=O)CCN3CCOCC3)ccc2O[C@H]1CN(C)Cc1ccc(Cl)c(Cl)c1 do in these assays?
UUG fidelity: -3

Results for CC(=O)NC[C@H]1[C@H](c2ccc(-c3ccccc3)cc2)[C@@H](CO)N1C(=O)C1CC1 ?
UUG fidelity: -8

Results for O=C(Cc1ccccc1)N1C[C@@H]2[C@H](c3ccccc31)[C@H](CO)N2C(=O)C1CCCCC1 ?
UUG fidelity: 4

How did C[C@H]1CN([C@@H](C)CO)C(=O)c2cc(NC(=O)CCC(F)(F)F)ccc2O[C@H]1CN(C)Cc1ccc(C(=O)Nc2ccccc2N)cc1 do in these assays?
UUG fidelity: 14

Results for CC=Cc1ccc2n(c1=O)C[C@H]1[C@H](CO)[C@@H](C(=O)NCC)N(Cc3cocn3)[C@@H]21 (mixture of isomers) ?
UUG fidelity: 11

What do the screens show for `C[C@@H]1CN([C@@H](C)CO)C(=O)Cc2cc(NC(=O)Nc3ccc4c(c3)OCO4)ccc2O[C@H]1CN(C)C`?
UUG fidelity: -7

Results for CC(C)NC(=O)N1[C@H](CO)[C@@H]2c3ccccc3N(C(=O)C3CCC3)C[C@@H]21 ?
UUG fidelity: 12

Results for Cc1ccc(-c2ccc([C@H]3[C@@H](CO)N4CCCCN(S(=O)(=O)c5cccc(C)c5)C[C@@H]34)cc2)cc1 ?
UUG fidelity: 11

Results for COCCNC(=O)C[C@H]1CC[C@@H]2[C@H](COC[C@H](O)CN2S(=O)(=O)c2ccccc2C)O1 ?
UUG fidelity: 24

What do the screens show for `C[C@@H]1CN([C@@H](C)CO)C(=O)CCCn2cc(nn2)CO[C@@H]1CN(C)Cc1ccc(C(=O)Nc2ccccc2N)cc1`?
UUG fidelity: -1

Results for C[C@@H]1CN([C@@H](C)CO)C(=O)c2cccc(NS(C)(=O)=O)c2O[C@H]1CN(C)C(=O)Nc1ccccc1 ?
UUG fidelity: -12

How did CCCNC(=O)N1C[C@H]2[C@@H](c3ccccc31)[C@@H](CO)N2Cc1ccc(OC)cc1 do in these assays?
UUG fidelity: 6

What do the screens show for `C[C@H](O)C#Cc1ccc([C@@H]2[C@H](CO)N3CCCCN(S(=O)(=O)Cc4ccccc4)C[C@@H]23)cc1`?
UUG fidelity: 16

Results for C/C=C/c1ccc([C@@H]2[C@@H](CN(C)C(=O)NC3CCCC3)N(C(C)=O)[C@H]2CO)cc1 ?
UUG fidelity: 2

What do the screens show for `O=C(C1CCC1)N1C[C@H]2[C@@H](c3ccccc31)[C@H](CO)N2C(=O)Nc1cccc(F)c1`?
UUG fidelity: 4

How did C[C@@H]1CN([C@@H](C)CO)C(=O)c2cc(NC(=O)Cn3cnnn3)ccc2O[C@@H]1CN(C)C do in these assays?
UUG fidelity: -10

Results for CCCNC(=O)C[C@H]1CC[C@@H]2[C@H](COC[C@@H](O)CN2C(=O)c2cc(Cl)cc(Cl)c2)O1 ?
UUG fidelity: -3

Results for C[C@H]1CN([C@@H](C)CO)C(=O)Cc2cc(NS(C)(=O)=O)ccc2O[C@H]1CN(C)C ?
UUG fidelity: -8

How did CN1C[C@@H]2[C@H](c3ccccc31)[C@H](CO)N2Cc1ccccc1F do in these assays?
UUG fidelity: 5

How did CNC[C@H]1Oc2ccc(NS(=O)(=O)c3ccc(Cl)cc3)cc2C(=O)N([C@@H](C)CO)C[C@H]1C do in these assays?
UUG fidelity: 1

What do the screens show for `COCC(=O)NC[C@@H]1N[C@@H](CO)[C@H]1c1ccc(-c2ccccc2F)cc1`?
UUG fidelity: -4

How did C[C@H](CO)N1C[C@H](C)[C@H](CN(C)Cc2ccc(C(F)(F)F)cc2)Oc2c(NC(=O)c3ccc(-c4nccs4)cc3)cccc2C1=O do in these assays?
UUG fidelity: -3

How did C[C@@H]1CN([C@H](C)CO)C(=O)c2cccc(NC(=O)C3CCCCC3)c2O[C@H]1CN(C)C(=O)Nc1cccc2ccccc12 do in these assays?
UUG fidelity: -8

Results for C[C@H](O)C#Cc1ccc([C@H]2[C@H]3CN(C(=O)c4cccc(F)c4)CCCCN3[C@H]2CO)cc1 ?
UUG fidelity: 1

Results for CN1CCN(C(=O)C[C@@H]2C[C@@H]3c4cc(NC(=O)CC5CC5)ccc4O[C@@H]3[C@H](CO)O2)CC1 ?
UUG fidelity: -14

How did C[C@@H]1CN([C@@H](C)CO)C(=O)c2cc(N(C)C)ccc2O[C@@H]1CN(C)C(=O)Nc1ccc(C(F)(F)F)cc1 do in these assays?
UUG fidelity: 33

Results for O=C(C1CCC1)N1CCCCN2[C@H](CO)[C@@H](c3ccc(-c4ccncc4)cc3)[C@H]2C1 ?
UUG fidelity: -18

How did C[C@@H]1CN([C@H](C)CO)C(=O)c2cc(NC(=O)C3CC3)ccc2O[C@H]1CN(C)S(=O)(=O)c1ccccc1 do in these assays?
UUG fidelity: 4
